Source: PubChem BioAssay
CDC25B CDK2 inh = human CDC25B-CDK2/CyclinA binding inhibition | HTRF CDC25B-CDK2/CyclinA binding, anti-His/anti-Flag; hits give high values | P30305+P24941 | 0.72% of 94,000 active | AID 1259370 | z-score (concentration not given with the values);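 note: score is relative to mean and SD of negative controls; strong numbers were not always called active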
TAR Tat displ = HIV-1 TAR-Tat binding disruption. HIV-1 TAR RNA, Tat peptide displacement FRET; hits give high values. z-score (test concentration not listed). 0.6% of 100,000 active. AID 1259389;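 note: score is relative to mean and SD of negative controls; some compounds called inactive have numbers as strong as hits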
Numbers without * were called inactive; · = not tested or not shown.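 Rule for the calls: active = z-score from 3 up in half or more of its runs; inactive = the rest.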

The line under a structure holds: CDC25B CDK2 inh, TAR Tat displ
CCOc1ccc(N2C(=O)CC(Sc3nc4c(cc3C#N)CCCC4)C2=O)cc1 (stereo not drawn)
  0.25, ·
CCn1cc(C(=O)NC2CCCCCC2)c(=O)c2cc(S(=O)(=O)N3CCCC3)ccc21
  -0.83, ·
O=C(c1ccccc1)C1C(=O)c2ccccc2C1=O
  -1.5, 2.1
CC(C)NC(=O)c1cnn2c3c(cnc12)CCCCCC3
  ·, 0.71
CCN(CC)CCCNC(=O)c1nn(C)c2c1COc1ccccc1-2
  -0.68, 0.86
CCOc1ccc(N2C(N)=NC(N)=NC23CCCC3)cc1
  -0.54, ·
CC(=O)N1CC2(C(C)C)CN(C(C)=O)CC(C(C)C)(C1)C2=O
  -1.6, -0.94
COc1cc(OC)c(C2Nc3cc(C)c(C)cc3NC3=C2C(=O)CC(C)(C)C3)cc1OC (stereo not drawn)
  0.32, ·
O=C1CSC(c2cccc(NS(=O)(=O)c3cccc(Cl)c3)c2)N1 (stereo not drawn)
  ·, 0.69
CCOc1ccc(NS(=O)(=O)c2cn(C)c(C)n2)cc1
  ·, 0.73
CCOC(=O)N1CCN(C(=O)Nc2c[nH]c3ccccc3c2=O)CC1
  -1.5, -1.4
CCOC(=O)c1sc(=S)n(-c2ccc(OC)cc2)c1N
  17*, 1.1
CCOC(=O)NC(=O)c1cn(CCc2ccncc2)c(=O)[nH]c1=O
  -1.5, ·
CC1CCN(C(=O)CSc2nnc(Cc3cccn3C)n2-c2ccc(F)cc2)CC1
  -0.08, ·
Cc1cc(Cl)ccc1NNC(N)=S
  -2.3, ·
CC1=C(c2ccccc2)S(=O)(=O)N=C1Nc1ccc(Br)cc1F
  -1.3, -0.15
COc1cc(Nc2nc3ccc(Cl)cc3n3cnnc23)cc(OC)c1
  -1.8, 0.72
COc1ccc(Cl)cc1N1C(=O)c2c(C)nc3ccccc3c2C1=O
  1.3, -0.2
Cc1ccc(-c2c(NCc3cccs3)c(=O)c2=O)cc1
  ·, 2.3
CCC(=O)N1c2ccc(S(=O)(=O)NCc3cccs3)cc2CC1C (stereo not drawn)
  ·, 0.16
N#Cc1cn(Cc2ccco2)c(=O)[nH]c1=O
  -2.6, ·
Cc1cc2nc3n(c2cc1C)C(O)C=C(C(C)(C)C)S3 (stereo not drawn)
  -1.6, 0.45
Cc1ncc(-c2ccc(S(=O)(=O)Nc3ccc4c(c3)OCCO4)cc2)o1
  ·, 0.58
Cc1cccc(-c2nc(CSc3nc4ncccc4o3)c(C)o2)c1
  ·, 1.1
CCCCOC(=O)C1=C(C)NC2=C(C(=O)CCC2)C1c1ccncc1 (stereo not drawn)
  -1.4, 1
C=CCOC(=O)c1sc(N2C(=O)c3oc4ccc(F)cc4c(=O)c3C2c2ccc(C)cc2)nc1C (stereo not drawn)
  -0.02, -0.07
CN(Cc1ccccc1)S(=O)(=O)c1ccc2c(c1)NC(=O)CS2
  ·, 2.1
O=C(Nc1cccc(-c2noc(C3CCC3)n2)c1)C1CC(=O)N(c2cccc(Cl)c2)C1 (stereo not drawn)
  ·, -0.57
Nc1nc(/C=C/c2ccccc2O)nc(-c2ccccc2O)n1
  3.6, 0.13
Cc1ccc(C)c(Cc2c(C)nc3nc(SCc4cc(=O)n5c(C)cccc5n4)nn3c2C)c1
  -0.46, ·

2 of the compounds above, tab-delimited:
SMILES	CDC25B CDK2 inh	TAR Tat displ
COc1cc(Nc2nc3ccc(Cl)cc3n3cnnc23)cc(OC)c1	-1.8	0.72
COc1cc(OC)c(C2Nc3cc(C)c(C)cc3NC3=C2C(=O)CC(C)(C)C3)cc1OC (stereo not drawn)	0.32	·

(cont.)
The line under a structure holds: CDC25B CDK2 inh, TAR Tat displ
C=Cc1ccc(CN2C(=O)N(Cc3ccc(F)cc3)S(=O)(=O)c3ccccc32)cc1
  ·, 1.4
O=C1CC(c2ccc(Cl)cc2)N=C(NC(=O)c2ccc3c(c2)OCO3)N1 (stereo not drawn)
  ·, 11
CCCN[C@H]1CS(=O)(=O)C[C@@H]1S(=O)(=O)c1ccc(OC)cc1
  -0.99, 0.39
COc1cccc2c1OC1(CCC(C)CC1)N1N=C(c3ccco3)CC21 (stereo not drawn)
  -0.86, ·
CCCOc1ccccc1C1C2=C(CCCC2=O)Nc2nnnn21 (stereo not drawn)
  0.49, 0.25
Cc1ncc(-c2ccc(S(=O)(=O)NCc3ccc(OC(C)C)cc3)cc2)o1
  ·, 0.25
COc1cc(C2c3c(-c4ccccc4O)n[nH]c3C(=O)N2CC2CCCO2)ccc1OCCC(C)C (stereo not drawn)
  -0.94, 1.1
CCOCCCNC(=O)c1sc2nc3n(c(=O)c2c1C)CCCC3
  ·, 0.56
CCn1c2ccccc2c2nnc(NCc3cccnc3)nc21
  -0.42, 0.53
Cc1cccc(N2C(=O)SC(Nc3ccccc3C(=O)O)C2=O)c1 (stereo not drawn)
  -0.85, ·
CC1CSc2ccc(S(=O)(=O)N3CCN(c4ccccc4F)CC3)cc2NC1=O (stereo not drawn)
  ·, 0.38
COc1ccccc1Cn1cc2c(-c3ccccc3)nnc-2c2cc(OC)c(OC)cc21
  1.8, 1.5
CCCNC(=O)C1CCC(Cn2c(=O)c3sccc3n(CC(=O)N3CCCC(C)C3)c2=O)CC1 (stereo not drawn)
  ·, -1.2
CCn1cc(C(=O)O)c(=O)c2cc(F)c(N3CCN(C(=O)Nc4ccccc4)CC3)cc21
  1.9, ·
COc1ccc(-c2noc(-c3ccccc3C)n2)cc1
  0.14, ·
Cc1nc(C)c(C(=O)Nc2ccc3c(c2)OCCO3)s1
  0.15, 1.3
CCc1ccc2oc(C(=O)Nc3sc4c(c3C(=O)NC)CCCC4)cc(=O)c2c1
  0.97, -7.3
COc1ccccc1OCCSc1nc(-c2ccccc2)nc2cc(=O)[nH]n12
  ·, 0.75
O=S(=O)(Nc1cccnc1)c1cc(Cl)sc1Cl
  0.08, ·
CC(C)Oc1ccc(C2CC(=O)Nc3c(-c4ccc(Cl)cc4)csc32)cc1 (stereo not drawn)
  ·, 3
COc1ccccc1N1CCN(S(=O)(=O)c2c(C)nc3scc(C)n3c2=O)CC1
  -0.93, -0.18
Cc1ccc(Cl)cc1OCC(=O)NCCOC(=O)Nc1sc(=S)n(C)c1C
  -1.3, 2.6
O=S(=O)(Cc1ccc(Cl)cc1)N1CCc2cc3ccccc3nc21
  -0.46, -0.23
COc1ccc2c(-c3ccc(Cl)cc3)c(C)oc2c1
  -0.66, 0.1
CCn1cnc2cc(NCc3nc4ccccc4n3Cc3ccccc3)ccc21
  13*, 1.9
CCCN1C(C)=NS(=O)(=O)c2cc(C(=O)NCC3CCCO3)ccc21 (stereo not drawn)
  ·, 3
CCCCSc1nc2c(c(=O)[nH]1)C(c1ccc(Cl)cc1)C(C(=O)OC)=C(C)N2 (stereo not drawn)
  -1, 0.82
Cc1ccc2nc(-c3ccncc3)c(Nc3ccccc3)n2c1
  -2.5, ·
COc1ccc(Cc2c(O)nc3n(c2=O)CCCS3)cc1
  -0.14, ·
O=C(O)c1cc(-c2ccco2)nc2cc3ccccc3cc12
  -0.67, ·
O=C(CSc1nccn(-c2ccc(Cl)cc2)c1=O)Nc1ccc(F)cc1
  ·, 0.85
O=C(CCc1nnc2c(=O)n(-c3cccc(F)c3)ccn12)Nc1ccc(F)c(Cl)c1
  ·, -0.82
CCOCCCNS(=O)(=O)c1ccc2c(c1)CCCC(=O)N2
  ·, 1.9
Cc1ccccc1Nc1c(-c2ccsc2)nc2ccccn12
  -4.3, ·
Cc1c(C(=O)N2CCN(C)CC2)oc2ccc3c(c12)C(=O)CC(C)(c1ccc(Cl)cc1)O3 (stereo not drawn)
  -2.1, -0.05
Cc1nc2nc(NC(=O)C(C)(C)C)nn2c(C)c1Cl
  0.86, 0.25
Cc1cc(C(F)(F)F)c(C#N)c(SCC(=O)c2ccccc2)n1
  0.06, ·
O=C(NCC1CCCO1)c1noc2c1CSc1ccccc1-2 (stereo not drawn)
  -1.6, 1.4
O=C1CCc2cc(S(=O)(=O)NCc3cccs3)cc3c2N1CC3
  ·, 1.7
FC(F)(F)c1cc(N2CCCCC2)c2cccc(Cl)c2n1
  -0.95, ·
O=C1CC(c2ccc(Cl)cc2)CC2=C1C(c1ccc3c(c1)OCO3)Nc1ccccc1N2 (stereo not drawn)
  -0.03, 0.41
N#Cc1c(NC(=O)c2ccccc2C(=O)O)sc2c1CCCC2
  -0.38, -0.68
CCOC(=O)c1sc(NC(=O)c2cncc(Br)c2)c(C(=O)OCC)c1C
  -0.19, 1.1
NC(=O)CSc1nc2c(sc3ccccc32)c(=O)n1CCCN1CCCC1
  -1, ·
O=c1oc(-c2ccc(Br)cc2)nc2ccccc12
  0.04, 0.86
O=C(Nc1ccccc1Br)c1cnn(-c2ccc(F)cc2)c1-n1cccc1
  ·, 0.75
Fc1ccccc1-c1nc(-c2ccccc2)no1
  -0.28, ·
O=C(Nc1ccc(-c2cnc(-c3ccc(NC(=O)c4ccccc4)cc3)nc2)cc1)c1ccccc1
  -1.9, ·
CCOC(=O)c1cc2cccc3c2n1CC(CC)O3 (stereo not drawn)
  -0.52, 1.2
Nc1nc(-c2cccnc2)nn1C(=O)Cc1ccccc1
  0.99, 1
O=c1[nH]c(SCc2cccc(Cl)c2)nc2c1cnn2-c1ccccc1
  ·, 1.2
Cc1ccc(-c2cn3c(n2)SCC3)cc1
  -1, 1.2
Cc1ccc(-c2c(NC(C)c3ccccc3)c(=O)c2=O)cc1 (stereo not drawn)
  ·, 0.89
Cn1c(=O)c2c(nc3n(-c4ccccc4N)c(-c4ccc(Cl)cc4)cn23)n(C)c1=O
  3.5, 0
O=C(Cn1c(=O)oc2cc(S(=O)(=O)N3CCc4ccccc43)ccc21)N1CCCCC1
  -0.3, 0.66
Cc1c(Cl)cccc1-n1nc(C)c2c(C)cc(=O)n(Cc3cc(=O)n4ccccc4n3)c21
  ·, 1.2
Cn1nc(CC(=O)O)c2ccccc2c1=O
  -0.56, -0.21
O=C(Nc1ccc([N+](=O)[O-])cc1Cl)c1cc(Cl)ccc1O
  -1.4, 1.6
O=C(O)c1csc(COc2cc(Cl)cc(Cl)c2)n1
  -0.14, ·
Cc1cc(NCCc2ccccc2)nc(C)n1
  -1, 1.5

Pulled by compound from the list above, 2 records:
The line under a structure holds: CDC25B CDK2 inh, TAR Tat displ
NC(=O)CSc1nc2c(sc3ccccc32)c(=O)n1CCCN1CCCC1
  -1, ·
Cn1nc(CC(=O)O)c2ccccc2c1=O
  -0.56, -0.21

In another format: six of the compounds above
Structure,CDC25B CDK2 inh,TAR Tat displ
Cc1cc(C(F)(F)F)c(C#N)c(SCC(=O)c2ccccc2)n1,0.06,·
O=C1CSC(c2cccc(NS(=O)(=O)c3cccc(Cl)c3)c2)N1 (stereo not drawn),·,0.69
CCOc1ccc(NS(=O)(=O)c2cn(C)c(C)n2)cc1,·,0.73
CCOCCCNC(=O)c1sc2nc3n(c(=O)c2c1C)CCCC3,·,0.56
O=C(CCc1nnc2c(=O)n(-c3cccc(F)c3)ccn12)Nc1ccc(F)c(Cl)c1,·,-0.82
Cc1ccc(Cl)cc1OCC(=O)NCCOC(=O)Nc1sc(=S)n(C)c1C,-1.3,2.6

Continued:
The line under a structure holds: CDC25B CDK2 inh, TAR Tat displ
COc1ccc(OC)c2c(C)cc(N3CCCC3)nc12
  2.7, 2.5
CC1CCCN(CCCNC(=O)C2CCN(c3ccc(-c4cccs4)nn3)CC2)C1 (stereo not drawn)
  ·, -0.01
N#Cc1cc2c(nc1SCC(=O)Nc1cnc3ccccc3c1)CCCCC2
  -2.5, ·
O=C(CN1C(=O)c2cccc3cccc1c23)Nc1cccc(F)c1
  0.27, 1.5
CC(C(=O)Nc1nccs1)N1Cc2ccccc2C1=O (stereo not drawn)
  ·, 1.1
COC(=O)C1=C(C)N=c2s/c(=C3\C(=O)N(C)c4ccccc43)c(=O)n2C1c1cccs1 (stereo not drawn)
  -7.5, ·
Cc1ccc2c(c1)NC(CCC(=O)NC(C)CCc1ccccc1)=NS2(=O)=O (stereo not drawn)
  ·, -1.1
CC(C)(C)n1nc2c(c1NC(=O)c1ccc(S(=O)(=O)N3CCOCC3)cc1)CS(=O)(=O)C2
  -1.9, 0.69
CCOC(=O)c1c(NC(=O)CC)sc2c1CCC(C(C)(C)C)C2 (stereo not drawn)
  -0.82, 0.16
O=C(O)CSc1nnc2nnc3ccccc3n12
  -0.88, ·
C/C(=N\OC(=O)c1ccc(Cl)cc1)c1cc(-c2ccccc2)no1
  -1.8, ·
CCc1nn(CCCC(=O)NCCCOC)c(=O)c2cc3oc(C)cc3n12
  -2, 0.78
COC(=O)c1cnn2c(C(F)(F)F)cc(-c3cccs3)nc12
  ·, 3
Cc1cc(-c2ccc(C)c(S(=O)(=O)NC(C)Cc3ccco3)c2)on1 (stereo not drawn)
  ·, 0.26
CC1CCc2nn(CC(=O)NCCN3CCOCC3)cc2C1 (stereo not drawn)
  -0.21, -0.61
COc1ccc(NC(=O)Nc2c(C3=CCCCC3)c(C)nn2C)cc1
  -0.53, -0.68
COCCNc1oc(/C=C/c2cccs2)nc1C#N
  -2.4, 0.31
CNC(=O)CCS(=O)(=O)c1cccc2nonc12
  ·, 2.8
NNC(=O)CS(=O)(=O)c1ccc(C(F)(F)F)cn1
  -1.8, ·
O=C1C=CC(=O)N1C1CCCCCCCCCCC1
  -2.6, ·
O=C(Nc1ccccc1)C(=O)c1cn(CC(=O)N2CCOCC2)c2ccccc12
  ·, 2.5
COc1ccc(OCC(O)CNC(=O)c2scc(S(=O)(=O)c3ccc(Cl)cc3)c2C)cc1 (stereo not drawn)
  1.9, ·
Cn1c(=O)oc2cc(S(=O)(=O)NCCC(=O)NC3CCCCCC3)ccc21
  -0.48, ·
O=C(Nc1ccc2c(c1)OCO2)C(=O)c1c[nH]c2ccccc12
  0.41, -2
Cc1ccc(CNS(=O)(=O)c2cccs2)cc1
  -0.08, -0.16
CN=C1NC(=O)CC(C(=O)Nc2ccc(F)cc2)S1 (stereo not drawn)
  -0.11, 0.34
